Screens (PubChem BioAssay)
STAT3 binder: binds human STAT3 on microarray; calls only; AID 624138; 0.2% of 17,000 active; P40763; Small molecule microarray, His-STAT3 binding, anti-His fluorescence;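 active = compounds whose four printed spots each show fluorescence over background unusually high for their array block, chance value under 7%; compounds were printed on slides so no solution concentration is given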;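 note: about 2 pmol printed per array spot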
Target sequence (P40763 whole entry, looked up): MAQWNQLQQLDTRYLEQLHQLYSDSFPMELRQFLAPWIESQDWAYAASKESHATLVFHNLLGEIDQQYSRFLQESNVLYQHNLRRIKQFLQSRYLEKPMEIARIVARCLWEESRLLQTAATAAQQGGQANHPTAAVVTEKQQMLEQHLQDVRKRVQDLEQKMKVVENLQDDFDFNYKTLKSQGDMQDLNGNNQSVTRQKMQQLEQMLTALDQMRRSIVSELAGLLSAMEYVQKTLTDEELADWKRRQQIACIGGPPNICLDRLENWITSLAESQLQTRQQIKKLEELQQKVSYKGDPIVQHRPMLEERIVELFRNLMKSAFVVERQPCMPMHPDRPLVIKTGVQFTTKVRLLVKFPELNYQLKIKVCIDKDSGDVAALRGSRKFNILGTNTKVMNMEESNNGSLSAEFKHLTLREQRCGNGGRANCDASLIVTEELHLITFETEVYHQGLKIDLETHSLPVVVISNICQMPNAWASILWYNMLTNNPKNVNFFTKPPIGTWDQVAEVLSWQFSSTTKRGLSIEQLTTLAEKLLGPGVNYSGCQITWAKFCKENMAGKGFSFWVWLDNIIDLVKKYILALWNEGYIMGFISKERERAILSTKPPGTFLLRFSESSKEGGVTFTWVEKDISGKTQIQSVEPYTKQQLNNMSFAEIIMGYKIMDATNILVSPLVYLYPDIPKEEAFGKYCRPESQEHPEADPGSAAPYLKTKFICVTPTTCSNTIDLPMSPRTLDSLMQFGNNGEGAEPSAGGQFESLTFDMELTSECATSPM
c-Myc SMM: binders of human c-Myc | small molecule microarray, His-c-Myc binding, anti-His fluorescence | AID 624141 | 1.5% of 17,000 active | calls only;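 active = spot fluorescence over background with P-value below 7% in all four replicate spots, showing protein binding; compounds were printed on slides so no solution concentration is given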;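 note: score is binary with 100 for all four spots passing and 0 otherwise; about 2 pmol printed per array spot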
p53 mut binder: binds human mutant p53 on microarray | small molecule microarray binding, anti-GST fluorescence | 0.4% of 17,000 active | calls only;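 active = compounds whose four printed spots each glow above background more than chance allows, each with a p-value under 7%; compounds were printed on slides so no solution concentration is given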;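 note: about 2 pmol printed per array spot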
ID4 SMM: binds human ID4 protein on microarray. small molecule microarray, Flag-ID4 binding, fluorescence F/B. calls only. 1.2% of 31,000 active;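 active = spot signal over background at p below 0.07 in all four prints; compounds were printed on slides so no solution concentration is given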;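 note: a binder raises fluorescence above local background on the spot; about 2 pmol printed per array spot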
Target sequence (P47928 whole entry, looked up): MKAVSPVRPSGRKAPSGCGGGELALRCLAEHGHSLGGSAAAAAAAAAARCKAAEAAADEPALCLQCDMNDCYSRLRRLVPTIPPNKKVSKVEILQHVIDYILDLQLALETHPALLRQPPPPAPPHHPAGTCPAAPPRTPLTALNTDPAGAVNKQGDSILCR
Calls only; i = inactive; / = not tested or not shown; + = active, no number.

SMILES	STAT3 binder	c-Myc SMM	p53 mut binder	ID4 SMM
C[C@H](CO)N1C[C@H](C)[C@@H](CN(C)S(=O)(=O)c2cccs2)Oc2c(NC(=O)c3ccc(-c4nccs4)cc3)cccc2C1=O	i	i	i	i
C[C@@H]1CN([C@@H](C)CO)C(=O)c2cc(NC(=O)Nc3ccc(C(F)(F)F)cc3)ccc2O[C@H]1CN(C)S(=O)(=O)c1ccc(F)cc1	i	i	i	/
CC(NC(=O)Cc1cc(F)cc(F)c1)C(=O)NC(C(=O)OC(C)(C)C)c1ccccc1 (configuration not stated)	i	i	i	i
C[C@@H]1CN([C@H](C)CO)C(=O)c2cccc(N(C)C)c2O[C@H]1CN(C)S(=O)(=O)c1ccccc1	i	i	i	i
O=C(OC[C@H]1O[C@@H](Oc2ccc(O)cc2)[C@H](O)[C@@H](O)[C@@H]1O)c1ccc(O)cc1	i	i	i	i
CC(Sc1nc2c(c(=O)n(C)c(=O)n2C)n1Cc1ccc(Cl)cc1Cl)C(=O)O (configuration not stated)	i	i	i	i
C[C@H](CO)N1C[C@H](C)[C@@H](CN(C)C)Oc2c(NC(=O)Nc3ccc(F)cc3)cccc2C1=O	i	i	i	i
C[C@@H]1CN([C@@H](C)CO)C(=O)c2cc(NS(=O)(=O)c3cn(C)cn3)ccc2O[C@@H](C)CCCCO[C@H]1CN(C)C	i	i	i	i
CC(=O)Nc1c(O)nc(SCC(=O)N2CCN(c3ccc(F)cc3)CC2)[nH]c1=O	i	i	i	i
COc1ccc(NC(=O)Nc2ccc3c(c2)C(=O)N([C@@H](C)CO)C[C@@H](C)[C@H](CN(C)C(=O)Nc2ccc4c(c2)OCO4)O3)cc1	i	i	i	/
C#CCNC(=O)C1=C[C@@H](C2CCCCC2)C[C@@H](OCc2ccc(CO)cc2)O1	i	i	i	i
Cc1noc(C)c1S(=O)(=O)N(C)C[C@H]1Oc2ccc(NC(=O)NC(C)C)cc2CC(=O)N([C@@H](C)CO)C[C@H]1C	i	i	i	i
C[C@@H]1CN([C@H](C)CO)C(=O)c2cc(NC(=O)Nc3cccc4ccccc34)ccc2O[C@@H](C)CCCCO[C@H]1CN(C)C	i	i	i	i
CC(C)NC(=O)N(C)C[C@H]1OCCCC[C@@H](C)Oc2ccc(NC(=O)Nc3ccc4c(c3)OCO4)cc2C(=O)N([C@@H](C)CO)C[C@H]1C	i	i	i	i
CC(C)NC(=O)N(C)C[C@@H]1OCc2cnnn2CCCC(=O)N([C@@H](C)CO)C[C@H]1C	i	i	i	i
O=C(CCc1nc(-c2ccc(Cl)cc2)no1)Nc1cccnc1	i	i	i	i
CCc1ccccc1NC(=O)C(C)n1cc([N+](=O)[O-])cn1 (configuration not stated)	i	i	i	i
Cc1noc(C)c1S(=O)(=O)N(C)C[C@H]1Oc2c(NC(=O)c3ccc(-c4nccs4)cc3)cccc2C(=O)N([C@H](C)CO)C[C@@H]1C	i	i	i	i
COc1ccc(CN(C)C[C@H]2Oc3ccc(NC(=O)CCCN(C)C)cc3C(=O)N([C@H](C)CO)C[C@H]2C)cc1	i	i	i	/
O=S(=O)(NCCSc1ccccn1)c1ccc(Br)cc1	i	i	i	i
C[C@@H]1CN([C@@H](C)CO)C(=O)Cc2cc(NS(=O)(=O)c3ccccc3)ccc2O[C@@H]1CN(C)C(=O)Nc1ccc2c(c1)OCO2	i	i	i	i
C[C@H](CO)N1C[C@H](C)[C@H](CN(C)S(=O)(=O)c2cn(C)cn2)Oc2c(NS(C)(=O)=O)cccc2C1=O	i	i	i	i
C[C@@H]1CCCCO[C@@H](CN(C)C(=O)C2CCCCC2)[C@H](C)CN([C@@H](C)CO)C(=O)c2cc(NS(=O)(=O)c3cccs3)ccc2O1	i	i	i	i
CC(=O)Nc1ccc(C(=O)Nc2ccc(S(=O)(=O)Nc3nccs3)cc2)cc1	i	i	i	i
C[C@@H]1CN([C@H](C)CO)C(=O)c2cc(NC(=O)Cc3cn(C)c4ccccc34)ccc2O[C@H]1CN(C)C(=O)Nc1ccccc1	i	i	i	i
(more compounds)
SMILES	STAT3 binder	c-Myc SMM	p53 mut binder	ID4 SMM
Cc1noc(C)c1NC(=O)N(C)C[C@@H]1Oc2ccc(NS(=O)(=O)c3cccs3)cc2CC(=O)N([C@H](C)CO)C[C@@H]1C	i	i	i	i
C[C@H]1CN([C@@H](C)CO)C(=O)CCCn2cc(nn2)CO[C@@H]1CN(C)C(=O)Nc1ccc(-c2cccs2)cc1	i	i	i	i
CC1(C)CC(=O)c2c(O)cc(OCC(=O)c3ccccc3)cc2O1	i	i	i	i
Cc1noc(C)c1NC(=O)Nc1cccc2c1O[C@@H](CN(C)S(=O)(=O)c1cccs1)[C@H](C)CN([C@H](C)CO)C2=O	i	i	i	i
C[C@@H]1CCCCO[C@H](CN(C)C(=O)C2CCCCC2)[C@H](C)CN([C@H](C)CO)C(=O)c2cc(N(C)C)ccc2O1	i	i	i	i
C[C@@H]1CN([C@@H](C)CO)C(=O)c2cccc(NS(=O)(=O)c3cn(C)cn3)c2O[C@@H]1CN(C)C(=O)Nc1ccc(C(F)(F)F)cc1	i	i	i	i
C[C@@H]1CCCCO[C@@H](CN(C)Cc2ccc3c(c2)OCO3)[C@@H](C)CN([C@H](C)CO)C(=O)c2cc(NC(=O)CCCN(C)C)ccc2O1	i	i	i	i
COc1ccc2[nH]c(C(=O)c3ccccc3)cc2c1	i	i	i	i
C[C@@H]1CCCCO[C@@H](CN(C)Cc2ccc(C(=O)O)cc2)[C@H](C)CN([C@H](C)CO)C(=O)c2cc(NC(=O)C3CCCCC3)ccc2O1	i	i	i	i
C[C@@H]1CN([C@@H](C)CO)C(=O)c2cc(NC(=O)Nc3ccc4c(c3)OCO4)ccc2O[C@H]1CN(C)C(=O)NC1CCCCC1	i	i	i	i
C[C@H]1CCCCO[C@@H](CN(C)Cc2ccccc2)[C@@H](C)CN([C@@H](C)CO)C(=O)c2cc(NC(=O)Nc3ccc4c(c3)OCO4)ccc2O1	i	i	i	i
C[C@H](CO)N1C[C@H](C)[C@H](CN(C)Cc2ccc(C(=O)O)cc2)Oc2c(NC(=O)C3CCOCC3)cccc2C1=O	i	i	i	i
C[C@H](CO)N1C[C@H](C)[C@@H](CN(C)C)Oc2c(NC(=O)Nc3ccccc3)cccc2C1=O	i	i	i	i
C[C@H]1CCCCO[C@@H](CN(C)Cc2ccc(C(F)(F)F)cc2)[C@@H](C)CN([C@@H](C)CO)C(=O)c2cc(NS(C)(=O)=O)ccc2O1	i	i	i	i
C[C@H]1CN([C@@H](C)CO)C(=O)c2cccc(NS(=O)(=O)c3ccc(Cl)cc3)c2O[C@H]1CN(C)Cc1ccc(C(=O)O)cc1	i	i	i	i
C[C@@H]1CN([C@@H](C)CO)C(=O)c2cc(NS(=O)(=O)c3cccs3)ccc2O[C@H]1CN(C)CC1CC1	i	i	i	i
C[C@H](CO)N1C[C@H](C)[C@H](CN(C)C(=O)Nc2ccccc2)OCCCC[C@H](C)Oc2ccc(NS(=O)(=O)c3ccccc3)cc2C1=O	i	i	i	i
COCCOC(=O)N1C(=O)[C@@]2(c3cc(C#CC4(O)CCCCCC4)ccc31)[C@H](c1ccc(O)cc1)N1[C@H](c3ccccc3)[C@H](c3ccccc3)OC(=O)[C@H]1[C@@H]2C(=O)N1CCN(c2ncccn2)CC1	i	i	i	/
Cc1cc(NC(=O)c2cc(-c3ccccc3)on2)n(-c2ccccc2)n1	i	i	i	i
Cc1noc(C)c1S(=O)(=O)N(C)C[C@@H]1Oc2ccc(NS(=O)(=O)c3ccc(Cl)cc3)cc2CC(=O)N([C@H](C)CO)C[C@@H]1C	i	i	i	i
C[C@@H]1CN([C@@H](C)CO)C(=O)CCCn2nncc2CO[C@@H]1CN(C)C(=O)Nc1ccccc1F	i	i	i	i
C[C@@H]1CN([C@@H](C)CO)C(=O)CCCn2nncc2CO[C@@H]1CN(C)Cc1ccccc1	i	i	i	i
C[C@H]1CN([C@@H](C)CO)C(=O)Cc2cc(NC(=O)CCC(F)(F)F)ccc2O[C@@H]1CN(C)S(=O)(=O)c1cccs1	i	i	i	/
Cc1cc(C)c(C#N)c(SCC(O)CNc2ccc(Cl)cc2)n1 (configuration not stated)	i	i	i	i
C[C@@H]1CN([C@@H](C)CO)C(=O)c2cc(NC(=O)C3CC3)ccc2O[C@@H]1CN(C)S(=O)(=O)c1cccs1	i	i	i	i

Shown field by field: 4 of the compounds above
> CCc1ccccc1NC(=O)C(C)n1cc([N+](=O)[O-])cn1 (configuration not stated)
  STAT3 binder = i | c-Myc SMM = i | p53 mut binder = i | ID4 SMM = i
> C[C@H](CO)N1C[C@H](C)[C@@H](CN(C)C)Oc2c(NC(=O)Nc3ccccc3)cccc2C1=O
  STAT3 binder = i | c-Myc SMM = i | p53 mut binder = i | ID4 SMM = i
> C[C@H](CO)N1C[C@H](C)[C@H](CN(C)C(=O)Nc2ccccc2)OCCCC[C@H](C)Oc2ccc(NS(=O)(=O)c3ccccc3)cc2C1=O
  STAT3 binder = i | c-Myc SMM = i | p53 mut binder = i | ID4 SMM = i
> C[C@@H]1CN([C@@H](C)CO)C(=O)c2cc(NS(=O)(=O)c3cccs3)ccc2O[C@H]1CN(C)CC1CC1
  STAT3 binder = i | c-Myc SMM = i | p53 mut binder = i | ID4 SMM = i

Following part
SMILES	STAT3 binder	c-Myc SMM	p53 mut binder	ID4 SMM
CCOC(=O)Nc1ccc2c(c1)nc(CN1CCOCC1)n2C	i	i	i	i
C[C@@H]1CN([C@@H](C)CO)C(=O)c2cc(NC(=O)CCCN(C)C)ccc2O[C@@H]1CN(C)C(=O)Nc1cccc2ccccc12	i	i	i	i
C[C@@H]1CN([C@@H](C)CO)C(=O)Cc2cc(NS(C)(=O)=O)ccc2O[C@@H]1CN(C)Cc1ccc(-c2ccccc2)cc1	i	i	i	i
COc1cc(OC)c(C(=O)CCCCN2CCC3(CC2)NC(=O)NC3=O)cc1NS(=O)(=O)c1ccc(C(F)(F)F)cc1	i	i	i	i
C=CCOC(=O)[C@H]1[C@@H]2C(=O)O[C@@H](c3ccccc3)[C@@H](c3ccccc3)N2[C@@H](c2ccc(OCCOC(=O)[C@@H]3C[C@@H]4C(=O)N5CCC[C@H]5C(=O)N4[C@@H]3c3ccc(O)cc3)cc2)[C@]12C(=O)Nc1ccccc12	i	i	i	i
COc1ccc(S(=O)(=O)N(C)C[C@@H]2Oc3c(NS(=O)(=O)c4cn(C)cn4)cccc3C(=O)N([C@H](C)CO)C[C@H]2C)cc1	i	i	i	i
CC(C)NC(=O)N(C)C[C@@H]1Oc2ccc(N(C)C)cc2CC(=O)N([C@@H](C)CO)C[C@H]1C	i	i	i	i
C[C@H](CO)N1C[C@H](C)[C@H](CN(C)C(=O)CCC(F)(F)F)OCCCC[C@H](C)Oc2ccc(NS(=O)(=O)c3cn(C)cn3)cc2C1=O	i	i	i	/
COc1ccc(-c2noc(CCCN3C(=O)c4ccccc4C3=O)n2)cc1OC	i	i	i	i
N#Cc1cc(C#N)c(SCCN2CCOCC2)nc1N	i	i	+	i
C[C@H](CO)N1C[C@H](C)[C@H](CN(C)Cc2ccc3c(c2)OCO3)Oc2ccc(NC(=O)CCCN(C)C)cc2C1=O	i	i	i	i
COC(=O)c1ccccc1NC(=O)COc1ccccc1F	i	i	i	i
C[C@@H]1CN([C@H](C)CO)C(=O)c2cc(NS(C)(=O)=O)ccc2O[C@@H](C)CCCCO[C@@H]1CN(C)S(=O)(=O)c1ccccc1	i	i	i	i
C[C@H]1O[C@@H](O[C@H]2CC[C@@]3(C)C(CC[C@]4(C)C3CC=C3C5CC(C)(C)CC[C@]5(C(=O)O)CC[C@]34C(=O)O)C2(C)C)[C@H](O)[C@@H](O)[C@H]1O (some centres not stated)	i	i	i	i
C[C@@H]1CN([C@@H](C)CO)C(=O)Cc2cc(NC(=O)Nc3ccccc3)ccc2O[C@@H]1CN(C)C(=O)Nc1ccc(C(F)(F)F)cc1	i	i	i	i
C[C@@H]1CN([C@@H](C)CO)C(=O)c2cc(NC(=O)C3CC3)ccc2O[C@@H]1CN(C)C(=O)Nc1cccc2ccccc12	i	i	i	i
COC1=CC(=O)OC1C(O)C(O)C(OC(C)=O)c1ccccc1 (configuration not stated)	i	i	i	i
Nc1nnc(SCc2nc3ccccc3n2Cc2ccccc2)s1	i	i	i	i
C[C@@H]1CN([C@H](C)CO)C(=O)Cc2cc(NS(=O)(=O)c3cn(C)cn3)ccc2O[C@H]1CN(C)CC1CC1	i	i	i	i
C[C@@H]1CN([C@@H](C)CO)C(=O)c2cc(NC(=O)Nc3ccc4c(c3)OCO4)ccc2O[C@@H](C)CCCCO[C@@H]1CN(C)C	i	i	i	i
COc1ccc(C)cc1NC(=O)CSc1nc(SC)ns1	i	i	i	i
Cc1noc(C)c1S(=O)(=O)N(C)C[C@@H]1OCCCC[C@@H](C)Oc2ccc(NC(=O)NC(C)C)cc2C(=O)N([C@@H](C)CO)C[C@@H]1C	i	i	i	i
Cc1noc(C)c1NC(=O)N(C)C[C@@H]1Oc2ncc(C#Cc3ccccc3)cc2C(=O)N([C@H](C)CO)C[C@@H]1C	i	i	i	i
C[C@@H]1CN([C@@H](C)CO)C(=O)c2cc(NC(=O)Nc3ccc4c(c3)OCO4)ccc2O[C@@H]1CN(C)C(=O)Nc1ccc2c(c1)OCO2	i	i	i	i
Cn1c2ccccc2n2nc(CCC(=O)O)c(=O)nc12	i	i	i	i
